# PKD1 inh = blocks activity of human protein kinase D1; inhibition, %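 (about 10 µM by stock and volumes)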; 200,000 tested, 0.056% active; PKD1 kinase fluorescence polarization assay; Q15139;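 active means inhibition of 50% or more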;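 further: controls were vehicle for no effect and a reference inhibitor for full effect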
# RGS16-Gao HTS = regulators of human RGS16-Galphao interaction; bead-based flow cytometry RGS16-Galphao binding, fluorescence; actives lie on both sides; 220,000 tested, 0.38% active; binding response (% of control), % at 10 µM; AID 1441;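 active means below 25% or above 175%, edge rows of some plates excepted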;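 further: Galphao activated by GDP with aluminum fluoride before binding; 100% = wells without compound and 0% = beads without RGS; some results beyond the cut were filed as inactive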
# Target sequence (O15492 whole entry, looked up): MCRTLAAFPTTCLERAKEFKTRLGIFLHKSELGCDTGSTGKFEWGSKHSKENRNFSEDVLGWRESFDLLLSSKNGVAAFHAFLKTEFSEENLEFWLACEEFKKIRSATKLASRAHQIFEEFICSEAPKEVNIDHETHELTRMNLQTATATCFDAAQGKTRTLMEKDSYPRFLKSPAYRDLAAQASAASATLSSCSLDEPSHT
# Target sequence (P09471 whole entry, looked up): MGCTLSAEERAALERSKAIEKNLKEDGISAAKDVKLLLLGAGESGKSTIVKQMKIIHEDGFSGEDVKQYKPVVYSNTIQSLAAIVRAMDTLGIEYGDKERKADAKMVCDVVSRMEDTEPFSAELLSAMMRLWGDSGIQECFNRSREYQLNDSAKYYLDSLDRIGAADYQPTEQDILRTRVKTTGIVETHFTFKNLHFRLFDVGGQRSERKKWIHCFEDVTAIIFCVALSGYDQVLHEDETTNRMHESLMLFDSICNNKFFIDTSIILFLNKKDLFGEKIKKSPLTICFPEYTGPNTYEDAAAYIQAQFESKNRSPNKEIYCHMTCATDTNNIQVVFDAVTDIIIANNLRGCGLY
# HSV replic up = increases HSV replication in cells | HSV replication augmentation in cells, fold increase | maximum fold increase | 220,000 tested, 0.005% active;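 active means peak rise of 1.5-fold or more in the series; inconclusive means self-fluorescent or not available for retest; tested in PC3 cells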;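 further: first round at 10 µM; read as green reporter fluorescence; hits show the peak of a series up to 25 µM; 1 = signal of infected wells without compound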
# INS promoter inh = TRM-6 insulin promoter activity inhibition. TRM-6 cells (human fetal islet line), insulin promoter-eGFP reporter, imaging; reporter expression induced with tamoxifen. inhibition, % at 2 µM. 130,000 tested, 0.9% active;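 active means inhibition above the mean plus 3 SD, with well images judged a real hit on visual review, cut at about 60% in these data, passing the limit was not always enough; inconclusive means inhibition over the cutoff but images rejected on review; inactive means inhibition not above the cutoff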
# GALR2 ag = activates the human galanin receptor 2 | O43603 | GALR2-expressing cells, agonist activation read-out | activation, %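 (tested at 5 µM)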 | 140,000 tested, 0.48% active | AID 803;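 active means above mean plus 3 SD of all compounds, about 5% in these data, not always enough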;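 further: 0% = vehicle buffer wells and 100% = reference agonist at full effect; tested in CHO reporter cells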
# Target sequence (O43603 whole entry, looked up): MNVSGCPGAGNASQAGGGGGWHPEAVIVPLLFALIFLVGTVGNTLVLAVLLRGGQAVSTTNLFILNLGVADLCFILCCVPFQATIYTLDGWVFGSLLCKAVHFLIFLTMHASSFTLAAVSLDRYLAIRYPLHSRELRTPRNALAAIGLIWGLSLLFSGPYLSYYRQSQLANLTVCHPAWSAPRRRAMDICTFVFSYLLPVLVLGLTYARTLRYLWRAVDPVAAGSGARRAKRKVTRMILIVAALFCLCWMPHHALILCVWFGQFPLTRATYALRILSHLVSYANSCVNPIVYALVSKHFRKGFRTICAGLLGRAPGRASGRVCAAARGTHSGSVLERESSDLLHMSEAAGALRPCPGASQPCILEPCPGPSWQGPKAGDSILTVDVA
# INS promoter inh cell count = further read-out of INS promoter inh, marked with its call; normalized cell count, %; measured here: cell count, toxicity; reference of the scale not given here;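 cells exposed to compound for 48 h; stained nuclei by imaging scaled within each plate; lower means fewer cells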
# HSV replic up primary fold = second read-out of HSV replic up, no call of its own (marks repeat the call); fold increase; compound at 10 µM; measured here: primary screen fold increase 10 uM; tested in PC3 cells;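 GFP signal in the first replicate; 1 = infected wells without compound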
# Numbers without * were called inactive; i = inactive; ? = inconclusive; / = no result given.
SMILES,PKD1 inh,RGS16-Gao HTS,HSV replic up,HSV replic up primary fold,INS promoter inh,INS promoter inh cell count,GALR2 ag
O=C(CCN1C(=O)C2C3C=CC(C3)C2C1=O)N1CCN(c2ccccc2Cl)CC1 (configuration not stated),0,110,i,0.82,3,79,-1.0
O=C(O)c1ccc(Cl)c(N2C(=O)Nc3ccccc3N2O)c1,-6,92,i,0.92,-13,86,/
Cc1ccccc1C(=O)NC(C)c1ccc2c(c1)CCCC2 (configuration not stated),-8,101,i,0.89,-17,66,-2.0
O=C1C(Cl)=C(Nc2ccccc2O)C(=O)N1c1ccccc1,-1,75,i,1,-69,166,-1.3
Cc1cccc(NS(=O)(=O)c2cc(C(=O)OC(C)C(=O)NCc3ccc4c(c3)OCO4)ccc2C)c1 (configuration not stated),-4,99,i,0.94,-59,102,-0.3
CC(=O)CC(=O)Nc1ccn(-c2ccccc2)n1,2,107,i,0.99,7,87,0.8
CNC(=S)NNC(=O)c1cn(C)nc1C,8,95,i,0.85,/,/,/
CCCC(c1nnnn1Cc1cccs1)N1CCN(C2CCCC2)CC1 (configuration not stated),-4,101,i,0.67,/,/,-1.1
O=[N+]([O-])c1ccc(O)c(N=Cc2sc3ccccc3c2O)c1,10,35,i,1.1,31,138,-1.0
O=C(CN1CCOCC1)Nc1cc(C(F)(F)F)ccc1Cl,0,111,i,0.97,/,/,/
CCN=C1S/C(=C\c2cn(CC(=O)NCCOC)c3ccccc23)C(=O)N1CC,-13,104,i,1,/,/,/
COc1ccc(Cl)cc1N1C(=O)C2CCCN2C1c1ccc(F)cc1 (configuration not stated),-1,103,i,0.9,/,/,-0.9
COC(=O)c1cc(S(=O)(=O)Nc2ccsc2C(=O)OC)oc1C,/,105,i,1.1,/,/,/
Cc1nc2cc(-c3cccs3)nn2c(NCC(C)(C)CN(C)C)c1C,-8,107,i,0.76,/,/,/
CSc1nnc2ccc(-c3ccccn3)nn12,0,101,i,0.85,/,/,/

# Three compounds out of the list, sorted by formula weight, high to low.
SMILES,PKD1 inh,RGS16-Gao HTS,HSV replic up,HSV replic up primary fold,INS promoter inh,INS promoter inh cell count,GALR2 ag
Cc1cccc(NS(=O)(=O)c2cc(C(=O)OC(C)C(=O)NCc3ccc4c(c3)OCO4)ccc2C)c1 (configuration not stated),-4,99,i,0.94,-59,102,-0.3
O=C(CN1CCOCC1)Nc1cc(C(F)(F)F)ccc1Cl,0,111,i,0.97,/,/,/
O=C1C(Cl)=C(Nc2ccccc2O)C(=O)N1c1ccccc1,-1,75,i,1,-69,166,-1.3

# (list continues)
SMILES,PKD1 inh,RGS16-Gao HTS,HSV replic up,HSV replic up primary fold,INS promoter inh,INS promoter inh cell count,GALR2 ag
Nc1cc(OC(=O)c2cccs2)nn1S(=O)(=O)c1ccc(F)cc1,-2,86,i,0.85,-14,88,-0.6
COc1ccc(-n2nc(C(=O)N3CCCCC3)c(C)c(C#N)c2=O)cc1,2,96,i,1,-73,133,/
O=C1CC(c2ccco2)CC(O)=C1C=NCCN1CCNCC1 (configuration not stated),2,114,i,0.89,-14,153,-0.1
COc1ccc(Cn2c(=S)[nH]c3ccsc3c2=O)cc1,-9,98,i,0.92,37,123,-2.2
COc1ccc(/C=C/C(=O)NC2CCCCCC2)cc1S(=O)(=O)N1CCOCC1,-1,106,i,0.96,14,72,0.3
COC(=O)c1cc(C#N)c(OC)nc1C,-2,95,i,0.91,-27,133,/
CCOC(=O)C1CCN(CCC(=O)Nc2cccc(C)c2)CC1,0,107,i,1,/,/,/
Cc1ccc(CCNC(=O)c2nnn(-c3cccc(C)c3)c2N)cc1,-16,99,i,0.87,/,/,-0.6
NC(=O)COC(=O)c1cc([N+](=O)[O-])ccc1NCCO,/,103,i,0.98,/,/,/
CC1(C)CC(N2CN(C3CCCCC3)CC2=O)CC(C)(C)N1,-6,106,i,0.95,/,/,-1.1
Cc1nc(C(=O)Nc2cc(Cl)ccc2Cl)nn1-c1cc(OC(C)C)c(Cl)cc1Cl,1,100,i,1,/,/,-0.2
Cc1ccc(C2C(C=Nc3c(C)n(C)n(-c4ccccc4)c3=O)=C(c3ccccc3)Oc3ccccc32)cc1 (configuration not stated),-15,99,i,1.1,-35,143,-1.6
Cc1nc(Nc2ccc(C(=O)O)cc2)sc1-c1ccccc1,5,100,i,1,/,/,/
C/C(CC(=O)NCc1ccco1)=N\NC(=O)COc1ccc(Cl)cc1Cl,-6,121,i,0.86,/,/,/
CCOC(=O)Nc1ccc2nc(N3CCCCCC3)sc2c1,/,97,i,0.67,/,/,/
CCn1cc(Cl)c(C(=O)Nc2nc3ccccc3n2CCN2CCCCC2)n1,-6,105,i,0.93,/,/,-1.1
CC(=O)c1c(C(=O)O)c2ccccc2[nH]c1=O,/,110,i,0.88,/,/,/
Cc1ccc(-n2ncc3c(NCc4cccnc4)ncnc32)c(C)c1,-8,103,i,0.92,11,85,-1.7
Cc1ccc(S(=O)(=O)Oc2ccccc2/C=C2/SC(=O)NC2=O)cc1,/,97,?,/,/,/,/
O=C/C(=C\Nc1ccc(Br)cc1)c1nc2ccccc2o1,-4,100,i,0.91,/,/,/
COc1ccc(Oc2nc3ccccc3nc2C(F)(F)F)cc1,0,100,i,0.96,/,/,-2.3
COc1cccc(-c2nn[nH]n2)c1O,3,107,i,0.71,8,142,-2.2
Cc1ccc(Nc2c(N)c(=O)oc3ccccc23)cc1,-20,99,i,0.92,-75,86,-2.7
COc1cc(CC(=O)Oc2ccc3c(c2)OCO3)cc(OC)c1OC,-8,97,i,0.9,38,80,-2.2
Cc1ccccc1Cn1nc(C)c(NC(=O)/C=C/c2cnn(C)c2)c1C,-3,117,i,1.1,38,60,-0.7
COC(=O)c1sc(NC(=O)C2CCCO2)c(C(=O)OC)c1C (configuration not stated),-4,83,i,0.97,-428,33,-2.4
OC(CNc1ccccc1)COc1ccc(OCC(O)CNc2ccccc2)cc1 (configuration not stated),-4,105,i,0.65,33,132,-0.5
Cc1ccc(S(=O)(=O)N2CCOCC2)cc1NC(=O)CSc1nc(N)cc(=O)[nH]1,/,94,i,0.93,/,/,/
CCOC(=O)N1CCN(c2c(NCCN3CCN(c4ccccc4F)CC3)c(=O)c2=O)CC1,/,103,i,0.99,/,/,/
CC(=O)Nc1ccc2c(c1)C(C)(C)C(C)N2C (configuration not stated),-9,100,i,1,-115,104,/
Cc1ccc(S(=O)(=O)N2CCC(=O)N(CCOC(=O)Nc3cccc(Cl)c3)CC2)cc1,7,102,i,0.85,-25,93,-1.5
CCC(C)(C(=O)Nc1ccc2c(c1)OCCO2)N(C(C)=O)c1ccc(C(N)=O)cc1 (configuration not stated),-3,105,i,1.1,21,114,-3.8
Cc1nn(CC(=O)OC(C)C(=O)Nc2ccccc2[N+](=O)[O-])c(C)c1[N+](=O)[O-] (configuration not stated),-10,99,i,1.5,/,/,0.7
O=C(COc1cccc2ccccc12)NNC(=O)C1CCCO1 (configuration not stated),-13,104,i,0.96,/,/,-1.5
CCc1nnc(NC(=O)c2ccc(-c3ccc(F)cc3)o2)s1,-4,99,i,0.97,/,/,/
CCOC(=O)c1sc2ncnc(N3CCN(CC)CC3)c2c1C,-4,101,i,0.95,-71,94,/
CCNc1nc(NCC)nc(SCCOC(=O)Nc2ccc(Cl)cc2Cl)n1,-4,82,i,0.96,-29,107,-0.9
Cc1ccc(NC(=O)CO/N=C/c2ccc(N(C)C)cc2)cc1,-7,108,?,/,-223,69,-1.8
COc1cc(C(=O)OC2CC3CCC2(C)C3(C)C)ccc1OC(C)=O (configuration not stated),-20,93,i,0.86,/,/,/
COc1ccc(/C=N/N=C2/NC(=O)C(CC(=O)NC(N)=O)S2)cc1 (configuration not stated),1,99,i,1.1,/,/,/
Cc1ccc(NC(=O)CS(=O)CC(=O)NC(C)CCc2ccco2)cc1Cl (configuration not stated),3,98,i,0.93,-244,48,-2.2
O=CN1CCc2scc[n+]2-c2ccccc21,0,106,i,1,50,138,-1.1
CCOc1ccc(OCCCCn2cnc3ccccc3c2=O)cc1,-2,104,i,0.91,/,/,/
COc1ccccc1NS(=O)(=O)c1cc(NC(=O)CCNC(C)=O)ccc1C,-6,112,i,0.97,-91,175,/
O=C(NC(Nc1nc2ccccc2s1)(C(F)(F)F)C(F)(F)F)c1ccccc1,-1,100,i,0.96,23,82,-1.2

# 17 successive records from above:
SMILES,PKD1 inh,RGS16-Gao HTS,HSV replic up,HSV replic up primary fold,INS promoter inh,INS promoter inh cell count,GALR2 ag
COC(=O)c1sc(NC(=O)C2CCCO2)c(C(=O)OC)c1C (configuration not stated),-4,83,i,0.97,-428,33,-2.4
OC(CNc1ccccc1)COc1ccc(OCC(O)CNc2ccccc2)cc1 (configuration not stated),-4,105,i,0.65,33,132,-0.5
Cc1ccc(S(=O)(=O)N2CCOCC2)cc1NC(=O)CSc1nc(N)cc(=O)[nH]1,/,94,i,0.93,/,/,/
CCOC(=O)N1CCN(c2c(NCCN3CCN(c4ccccc4F)CC3)c(=O)c2=O)CC1,/,103,i,0.99,/,/,/
CC(=O)Nc1ccc2c(c1)C(C)(C)C(C)N2C (configuration not stated),-9,100,i,1,-115,104,/
Cc1ccc(S(=O)(=O)N2CCC(=O)N(CCOC(=O)Nc3cccc(Cl)c3)CC2)cc1,7,102,i,0.85,-25,93,-1.5
CCC(C)(C(=O)Nc1ccc2c(c1)OCCO2)N(C(C)=O)c1ccc(C(N)=O)cc1 (configuration not stated),-3,105,i,1.1,21,114,-3.8
Cc1nn(CC(=O)OC(C)C(=O)Nc2ccccc2[N+](=O)[O-])c(C)c1[N+](=O)[O-] (configuration not stated),-10,99,i,1.5,/,/,0.7
O=C(COc1cccc2ccccc12)NNC(=O)C1CCCO1 (configuration not stated),-13,104,i,0.96,/,/,-1.5
CCc1nnc(NC(=O)c2ccc(-c3ccc(F)cc3)o2)s1,-4,99,i,0.97,/,/,/
CCOC(=O)c1sc2ncnc(N3CCN(CC)CC3)c2c1C,-4,101,i,0.95,-71,94,/
CCNc1nc(NCC)nc(SCCOC(=O)Nc2ccc(Cl)cc2Cl)n1,-4,82,i,0.96,-29,107,-0.9
Cc1ccc(NC(=O)CO/N=C/c2ccc(N(C)C)cc2)cc1,-7,108,?,/,-223,69,-1.8
COc1cc(C(=O)OC2CC3CCC2(C)C3(C)C)ccc1OC(C)=O (configuration not stated),-20,93,i,0.86,/,/,/
COc1ccc(/C=N/N=C2/NC(=O)C(CC(=O)NC(N)=O)S2)cc1 (configuration not stated),1,99,i,1.1,/,/,/
Cc1ccc(NC(=O)CS(=O)CC(=O)NC(C)CCc2ccco2)cc1Cl (configuration not stated),3,98,i,0.93,-244,48,-2.2
O=CN1CCc2scc[n+]2-c2ccccc21,0,106,i,1,50,138,-1.1

# (next part)
SMILES,PKD1 inh,RGS16-Gao HTS,HSV replic up,HSV replic up primary fold,INS promoter inh,INS promoter inh cell count,GALR2 ag
Cc1onc(-c2ccccc2)c1CNS(=O)(=O)c1cccc(Br)c1,/,104,i,0.89,/,/,/
O=C(Nc1ccccc1)C12CC3CC(C1)CC(n1cnc([N+](=O)[O-])n1)(C3)C2,-4,100,i,0.86,/,/,0.7
Cc1cc(Nc2nc3ccccc3[nH]c2=O)n(-c2ccccc2)n1,-10,96,/,/,/,/,0.4
NC(=O)c1ccsc1NC(=O)COC(=O)COc1ccccc1F,-4,96,i,0.95,/,/,0.1
CC(C)C(=O)c1cn(CC(=O)N2CCCc3ccccc32)c2ccccc12,-3,117,i,0.84,-14,104,-1.6
Cc1ccc(P(=O)(CSC(=N)N)c2ccc(C)cc2)cc1,0,99,i,0.94,-59,99,0.6

# Compounds as they come; any-hit rate near 1.3%.
